Compound activity as filed in PubChem BioAssay.
VDR inhibitor: vitamin D3 receptor (human) inhibition | Potency, µM, for the others: max response, negative = inhibition, actives largely listed as inhibitors | 0.93% of 400,000 active | VDR-SRC2-3 peptide fluorescence polarization, 2 h; active = well fitted inhibition curve with a large enough effect; inconclusive = small, poorly fitted or top-dose-only effect, or another doubt; inactive = no such curve, though single readings can be large or run the other way; also: series mostly up to about 120 µM
Target sequence (P11473 whole entry, looked up): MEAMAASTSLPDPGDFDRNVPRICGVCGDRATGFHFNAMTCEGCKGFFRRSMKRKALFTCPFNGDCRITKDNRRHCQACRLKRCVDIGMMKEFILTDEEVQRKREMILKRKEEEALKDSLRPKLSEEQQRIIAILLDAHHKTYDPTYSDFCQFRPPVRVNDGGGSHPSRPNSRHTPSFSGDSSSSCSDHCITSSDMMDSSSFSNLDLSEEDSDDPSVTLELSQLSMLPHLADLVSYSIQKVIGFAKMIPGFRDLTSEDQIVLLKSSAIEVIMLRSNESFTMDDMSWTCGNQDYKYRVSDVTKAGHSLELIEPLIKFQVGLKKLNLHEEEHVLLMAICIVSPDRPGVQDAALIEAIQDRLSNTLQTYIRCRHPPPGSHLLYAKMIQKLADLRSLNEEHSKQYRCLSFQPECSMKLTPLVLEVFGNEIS
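The screen uses fluorescence polarization to detect compounds that interfere with recruitment of the SRC2-3 coactivator peptide to VDR; plates are read after 2 h at room temperature.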
* hit, by the source's call; ? = inconclusive; & = joins results of further samples. % is scaled to controls: 0 for no effect and ±100 for the full control effect; potency is read from the fitted curve at half-maximal effect. This is a subset; rates above refer to the full screens.

entry | Molecule | VDR inhibitor
1 | CCOc1ccc(-c2nc(CSCC(=O)N3CCN(C(=O)c4ccco4)CC3)c(C)o2)cc1 | 0%
2 | COCCN(Cc1nc2ccccc2c(=O)[nH]1)C(=O)COc1cccc(C(C)=O)c1 | 0%
3 | CN(Cc1ccccc1)C(=O)c1ccc(NC(=O)Cc2cccc([N+](=O)[O-])c2)cc1 | 1%
4 | Cn1c(=O)c2c(-c3ccccc3)n3c(c2n(C)c1=O)C(c1cc(Cl)ccc1O)Nc1ccccc1-3 (stereo not given) | 18%
5 | O=C(Cn1ncc2c(=O)oc3ccccc3c21)N1CCN(c2ccc(Cl)cc2)CC1 | -9%
6 | CCOC(=O)C(Cc1ccccc1)C(=O)NCc1ccccc1 (stereo not given) | -22%
7 | COc1ccc(CCNC(=O)Cn2c(=O)[nH]c3ccsc3c2=O)cc1OC | -1%
8 | COc1ccc(C(=O)Nc2ccc(-c3nc4cc(C)ccc4o3)c(O)c2)cc1 | -27%
9 | Cc1cc(C(C)(C)C)ccc1OCCCCN1CCCC1 | 1%
10 | Cc1cccn2c(=O)c3cc(C(=O)N4COCC4(C)C)n(Cc4ccccc4)c3nc12 | -4%
11 | CC(C)n1c(CN2CCN(C)CC2)nc2c1c(=O)n(C)c(=O)n2C | 4%
12 | COc1ccc(C(=O)Nc2nc(CC(=O)NCc3ccc(F)cc3)cs2)cc1 | -11%
13 | Cc1ccc2oc3c(c(=O)c2c1)C(c1ccccc1F)N(CCCN(C)C)C3=O (stereo not given) | -14%
14 | Cn1cnnc1SCC(=O)Nc1ccc2nc(SCc3ccccc3)sc2c1 | 14%
15 | Cn1c(=O)c2ncn(CC(=O)Nc3ccc(N4CCOCC4)cc3)c2n(C)c1=O | -3%
16 | C[C@H](CO)N1C[C@H](C)[C@@H](CN(C)C(=O)Nc2ccc3c(c2)OCO3)Oc2c(NC(=O)Nc3ccccc3)cccc2C1=O | 16%
17 | C/C(=N\OCC(=O)Nc1ccccc1C(C)(C)C)c1ccc2c(c1)OCCO2 | 4%
18 | O=[N+]([O-])c1cc2c(cc1/C=N/n1c(-c3ccccn3)n[nH]c1=S)OCO2 | -13%
19 | Cc1cccc(C(=O)Nc2sc3c(c2C(=O)Nc2ccccc2)CCC3)c1 | -11%
20 | CN(Cc1ccccc1)C(=O)COC(=O)c1cc(=O)[nH]c2ccccc12 | 1%
21 | COCCCNCCOCCOc1ccc(C)cc1[N+](=O)[O-] | 0%
22 | Cc1ccc(NC(=O)Cn2nc(C(F)(F)F)c3c2CCC3)cc1C | ?
23 | Cc1ccc(C(=O)NCc2ccco2)cc1[N+](=O)[O-] | 3%
24 | CCOC(=O)Cc1nnc2c(Nc3ccccc3F)nc3nonc3n12 | 11%
25 | C[N+]1(CC(=O)OCCCC2CCCCC2)CCCC1 | -22%
26 | Cc1ccc(N2CCN(C(=S)Nc3ccccc3C)CC2)cc1 | 5%
27 | COc1ccc(NS(=O)(=O)c2cccc(C(=O)N/N=C(\C)c3ccncc3)c2)cc1 | -11%
28 | COc1ccc(NC(=O)c2ccc3nc[nH]c3c2)cc1 | 22%
29 | CN1CCN(S(=O)(=O)c2cccc(C(=O)Nc3cc(C(F)(F)F)ccc3N3CCCCC3)c2)CC1 | 11%
30 | CCN(C(=O)c1cc2c(=O)n3cccc(C)c3nc2s1)c1ccc(C)c(C)c1 | 4%
31 | COn1c(-c2ccc(C)cc2)nc2ncccc21 | 20%
32 | COc1ccc(CCNC(=O)C(=O)NCC2OCCN2S(=O)(=O)c2cccs2)cc1 (stereo not given) | 7%
33 | Cc1c(C(=O)Nc2cccc(-c3nc4ccccc4s3)c2)oc2ccccc12 | 5%
34 | CSc1ccccc1NC(=O)c1ccc(N2CCCC2=O)cc1 | -6%
35 | N#Cc1cc([N+](=O)[O-])cnc1N(CCO)CCO | -16%
36 | Cc1cc2c(=O)n(C)c(SCC(=O)Nc3ccc(F)cc3)nc2s1 | -8%
37 | COc1ccccc1NCCC(=O)OCC(=O)NC1CCCC(C)C1C (stereo not given) | -13%
38 | CCOc1ccc(NC(=O)CN(C)C(=O)c2cc(C)nc3ccccc23)cc1OCC | -7%
39 | C/C(=N\Nc1ccc(Cl)c(C(=O)O)c1)c1cc2ccccc2o1 | -19%
40 | COc1ccc(C(=O)Oc2ccc(/C=N/NC(=O)c3ccccc3OC)cc2[N+](=O)[O-])cc1 | -6%

4 entries from above, with each value named.
(24) CCOC(=O)Cc1nnc2c(Nc3ccccc3F)nc3nonc3n12
  VDR inhibitor = 11%
(2) COCCN(Cc1nc2ccccc2c(=O)[nH]1)C(=O)COc1cccc(C(C)=O)c1
  VDR inhibitor = 0%
(21) COCCCNCCOCCOc1ccc(C)cc1[N+](=O)[O-]
  VDR inhibitor = 0%
(26) Cc1ccc(N2CCN(C(=S)Nc3ccccc3C)CC2)cc1
  VDR inhibitor = 5%

(continued)
entry | Molecule | VDR inhibitor
41 | CC1=C(C(=O)Nc2ccccc2C(=O)NCCCOC(C)C)SCCO1 | 18%
42 | COCCCNC(=O)c1cc(C(=O)c2ccccc2Br)c[nH]1 | -27%
43 | COC(=O)C1=C(NC(=O)c2cccc(OC)c2)CCS1 | 1%
44 | COc1cc(Cl)ccc1OCc1cc(C(=O)N2CCN(c3ccccn3)CC2)no1 | 11%
45 | COc1ccc(Cl)cc1-n1c(N)c(C(N)=O)sc1=S | 79µM*
46 | CCOCC(=O)Nc1nnc(C2CCCCC2)s1 | ?
47 | O=C(COc1ncnc2ccccc12)NCCc1ccccc1 | -23%
48 | Cc1ccc(C(=O)N2CCN(c3ccccn3)CC2)cc1 | -11%
49 | CCn1ncc(Br)c1C(=O)Nc1ccccc1C(F)(F)F | -8%
50 | COCCn1c(SC(C)C(=O)Nc2ccc(N3CCOCC3)cc2)nnc1-c1ccncc1 (stereo not given) | -1%
51 | COc1ccc2c(c1OC)C(=O)N1C2SC[C@H]1C(=O)NC1CC(C)(C)NC(C)(C)C1 (stereo not given in full) | 2%
52 | O=C(c1ccccc1)N1CCN(c2ccc(N3CCOCC3)nn2)CC1 | 7%
53 | Cc1cc(C(=O)COC(=O)CC2Sc3ccccc3NC2=O)c(C)n1-c1ccc(Br)cc1 (stereo not given) | -23%
54 | CC1(C)CC(=O)C(CCC(=O)c2ccccc2)C(C)(C)N1 (stereo not given) | 8%
55 | CCN(CC(=O)Nc1ccc(S(N)(=O)=O)cc1)S(=O)(=O)c1cc(C)ccc1OC | 9%
56 | O=C(COC(=O)Cc1ccccc1[N+](=O)[O-])NCc1ccccc1Cl | 0%
57 | NNC(=O)C1CC(O)CN1S(=O)(=O)c1ccc(Cl)cc1 (stereo not given) | 1%
58 | CC(=O)N1CCN(C(=S)c2ccc([N+](=O)[O-])cc2)CC1 | -6%
59 | COC(=O)/C=C/C(=O)NCc1ccco1 | -17%
60 | CCCC(C(=O)NCCC(C)C)N(Cc1ccc(OC)cc1)C(=O)c1snc(C(N)=O)c1N (stereo not given) | -17%
61 | Cc1ccc(CN2CCN(CC(=O)NCCCN3CCN(c4ccc(F)cc4)CC3)C2=O)cc1 | 20%
62 | CC1(C)CC(=O)C=C(CN2C(=O)c3ccccc3C2=O)C1=O | -23%
63 | COc1cc2c(cc1OC)CN(CCC(=O)c1ccc(Br)cc1)CC2 | 71µM*
64 | CC(=O)Nc1ccc(NC(=O)CSc2nnc(-c3ccco3)o2)cc1 | -4%
65 | O=C(CSc1nc2ccccc2c(=O)n1CCC(=O)NC1CCCCC1)Nc1ccccc1Cl | 4%
66 | O=C(Oc1ccc2c(c1)OCO2)C12CC3CC(CC(C3)C1)C2 | -13%
67 | COc1ccc(-c2nc3n(c(=O)c2C#N)CCS3)c(OC)c1 | -7%
68 | COc1ccccc1NC(=O)CSCC(=O)N1c2ccccc2CCc2ccccc21 | -24%
69 | COc1ccc2cc(C(=O)C3CCCN(C(=O)C4=NN(C)C(=O)CC4)C3)ccc2c1 (stereo not given) | -7%
70 | COCCCNC(=O)C(=O)NCC(c1ccco1)N1CCN(c2ccc(OC)cc2)CC1 (stereo not given) | -20%
71 | Cn1nc(C(F)(F)F)c2cc(C(=O)Nc3ccc(C(F)(F)F)cc3)sc21 | 0%
72 | CCCC(CCC)C(=O)Nc1nnc2n1CCS2 | -6%
73 | CCc1cccc(C)c1NC(=O)CSc1nc2ccccc2nc1N1CCOCC1 | -6%
74 | Cc1ccccc1Cn1nc(C)c(NC(=O)c2cc(-c3cccs3)on2)c1C | -8%
75 | CCOC(=O)/C(C#N)=N/Nc1c(C)n(C)n(-c2ccccc2)c1=O | -5%
76 | COc1cccc2sc(N3CCN(C(=O)c4ccco4)CC3)nc12 | 12%
77 | CNC(=S)N/N=C/c1cc(C)ccc1C | 3%
78 | CCNc1nc(NCC)nc(SCCOC(=O)c2ccccc2)n1 | 4%
79 | COc1ccccc1N1CCN(C(=O)c2cc(-c3ccccc3)on2)CC1 | -5%
80 | COc1ccc(-c2c(C)oc3c(CN4CCCCC4C)c(O)ccc3c2=O)cc1 (stereo not given) | 1%
81 | O=C(c1ccc(COc2ccc(Cl)cc2)o1)N1N=C(C(F)F)CC1(O)C(F)F (stereo not given) | -6%
82 | CCOc1ccc(C2C(C(=O)Nc3ccccc3)=C(C)N=c3s/c(=C/c4cccc(OCC(=O)O)c4)c(=O)n32)cc1 (stereo not given) | -24%
83 | Nc1cc(N)nc(SCc2cccnc2)n1 | 15%
84 | CC(=O)c1ccc(NCC2COc3ccccc3O2)c([N+](=O)[O-])c1 (stereo not given) | 14%
85 | CCOC(=O)C1(CC2CC2)CCN(Cc2cnc(N(C)C)s2)CC1 | -5%
86 | CCc1ccc(Nc2nnc(-n3nc(C)cc3C)c3ccccc23)cc1 | 1%
87 | O=C(Nc1cccnc1N1CCOCC1)c1cccs1 | -9%
88 | CCOc1ccc(-c2[nH]ncc2Oc2ccccc2OCC)c(O)c1 | -2%
89 | CC(=O)c1cccc(NC(=O)Cn2ccn3nc(-c4ccccc4)cc3c2=O)c1 | 4%
90 | COc1cccc(OC)c1C(=O)NC(=S)N1CCN(c2ccc(C(F)(F)F)cc2[N+](=O)[O-])CC1 | -4%
91 | CCC(C)NC(=O)Cn1c(=O)c2cccn2c2ccc(F)cc21 (stereo not given) | 8%
92 | C#CCOCCOCCOCCNc1nc(N2CCN(C(=O)[C@H](CCCCN)n3cc(CCCC)nn3)CC2)nc(N2CCN(C(=O)[C@H](CCCCN)n3cc(CCCC)nn3)CC2)n1 | -8%
93 | CNc1ccc(C(O)(C(F)(F)F)C(F)(F)F)cc1C(O)(C(F)(F)F)C(F)(F)F | -7%
94 | CN(Cc1ccc(F)cc1)S(=O)(=O)c1nnc(NC(=O)c2ccccc2Br)s1 | -18%&-1%
95 | O=C(O)CN1C(=O)C(=O)N(Cc2ccccc2F)C1=O | -11%
96 | Cc1ccc(-c2nc3c(c(SCC(=O)N4CCCCC4)n2)Cc2cc(C)ccc2O3)cc1 | 10%
97 | Cc1ccc2c(C)c(C(=O)NCc3ccc(S(N)(=O)=O)cc3)oc2c1 | 4%
98 | CCOC(=O)C(C)Sc1nnc(Cc2cc(=O)[nH]c(=O)[nH]2)n1-c1cccc(OC)c1 (stereo not given) | -3%
99 | NC(=O)CSc1nnc(-c2cc3ccccc3o2)n1Cc1ccccc1 | 3%
100 | Oc1ccc(C(=S)N2CCCCC2)cc1 | -13%

(listing goes on)
entry | Molecule | VDR inhibitor
101 | C/C=C(/C)C(=O)O[C@H]1CC(C)=CC(=O)[C@@]2(C)CC[C@@](O)(C(C)C)[C@H]12 | 4%
102 | Cn1ncc2c(=O)n(CC(=O)NC34CC5CC(CC(C5)C3)C4)cnc21 | -4%
103 | Cc1cccc(NCC(=O)N/N=C\c2cccn2C)c1 | -11%
104 | O=C1CC[C@@H](O)CCN1CC[C@H](Sc1ccccc1)c1ccccc1 | 4%
105 | Cc1ccc(OCc2nnc(NC(=O)c3ccco3)s2)c(C)c1 | -14%
106 | COCC(=O)N1CCC[C@@]2(CCN(c3ncccn3)C2)C1 | 11%
107 | O=C(NCCNC(=O)c1ccccc1Cl)c1ccco1 | -28%
108 | COc1ccc(NC(=O)CCNC(=O)Cn2cnc3ccccc3c2=O)c(OC)c1 | -8%
109 | O=C(O)Cc1sc(N/N=C\c2ccncc2)nc1-c1ccccc1 | -16%
110 | NCCCC[C@H]1CNC(=S)N1CCc1cc(C(F)(F)F)cc(C(F)(F)F)c1 | 16%
111 | COc1cc(C(=O)Nc2cc(C(F)(F)F)ccc2Cl)cc(OC)c1OC | 1%
112 | N/C(=N\OC(=O)c1ccncc1)c1cccc([N+](=O)[O-])c1 | 23%
113 | COc1ccc(Cl)cc1NC(=O)CSc1ncnc2c1oc1ccccc12 | 13%
114 | CCOc1ccc(S(=O)(=O)NCCCN2CCOCC2)c2ccccc12 | 6%
115 | CCOc1ccccc1Nc1nnc(SCC(=O)Nc2cc(C)on2)s1 | 15%
116 | CC(=O)c1cnc2nc(C)nn2c1C | 5%
117 | CN(C)CCNC(=O)Cc1ccc([N+](=O)[O-])cc1 | 14%
118 | CCc1ccccc1Nc1nn2c(=O)c3ccc(C(=O)NCc4ccccn4)cc3nc2s1 | -16%
119 | COc1ccc(C(=O)N/N=C/c2ccc3cccc(OCc4ccccc4)c3n2)cc1 | -14%
120 | CCCCn1c(=O)c2ccccc2n2c(=S)[nH]nc12 | 7%
121 | O=C(c1cc([N+](=O)[O-])ccc1Cl)N1CCN(c2ccc([N+](=O)[O-])cc2)CC1 | -1%
122 | N=c1c2c(n(Cc3ccc([N+](=O)[O-])cc3)c3c1CCC3)CCCC2 | -11%
123 | O=C(COC(=O)c1ccccc1C(=O)c1ccc(Cl)cc1)NC(c1ccccc1)c1ccccc1 | 0%
124 | CN1CCN(S(=O)(=O)c2ccc(Oc3ccc(Br)cc3F)nc2)CC1 | -7%
125 | CCNC(=O)N1CCN(CCCC(c2ccc(F)cc2)c2ccc(F)cc2)CC1 | 0%&-4%&-16%
126 | CC(=O)c1ccc([C@H]2C[C@@]34CN(C(=O)OC(C)(C)C)S(=O)(=O)[C@H]3C[C@H]2O4)cc1 | 1%
127 | O=C1N[C@@H](Cc2ccccc2)C(=O)N2[C@H]3Nc4ccccc4[C@@]3([C@]34C[C@H]5C(=O)N[C@@H](Cc6ccccc6)C(=O)N5[C@H]3Nc3ccccc34)C[C@@H]12 | -12%
